VACV mCherry inh = qHTS for Stage-Specific Inhibitors of Vaccinia Orthopoxvirus: mCherry Reporter Primary qHTS | Vaccinia virus mCherry reporter infection, fluorescence; about a quarter of the inactives have no number | AID 720579, 2013 | Potency, µM (doses to about 36.5 µM), for the others: at the top dose activity change, negative = inhibition, most hits filed as inhibitors | 310,000 compounds, 0.63% hits; active = well fitted inhibition curve with a large enough effect; inconclusive = small, poorly fitted or top-dose-only effect; inactive = no such curve, though single readings can be large or run the other way; tested in A549 cells; also: nearly all actives have a fitted effect of over 35% in size; inactives centre near -10
VACV Venus inh = qHTS for Stage-Specific Inhibitors of Vaccinia Orthopoxvirus: Venus Reporter Primary qHTS | Vaccinia virus Venus reporter expression, fluorescence | 330,000 compounds, 0.46% hits | Potency, µM (doses to about 36.5 µM), inactives show top-dose activity change, negative = inhibition, usual class: inhibitors; active means well fitted inhibition curve with a large enough effect; inconclusive means small, poorly fitted or top-dose-only effect; inactive means no such curve, though single readings can be large or run the other way; tested in A549 cells; also: nearly all actives have a fitted effect of over 30% in size; inactives centre near -10
* = called active by the depositor; i = inactive; ? = inconclusive; · = not tested or not shown; & = joins results of further samples; [ ] = remark or other dose. % is scaled to controls: 0 for no effect and ±100 for the full control effect; potency is read from the fitted curve at half-maximal effect. Not a hit list; any-hit rate near 0.88%.

SMILES	VACV mCherry inh	VACV Venus inh
O=C(CSc1nnc(-c2ccccc2O)o1)NC1CCCCC1	i	-5%
COc1ccccc1Oc1ncnc2sccc12	-7%	-2%
COc1cc2oc3ccccc3c2cc1N(CC(=O)N1CCCCC1)S(=O)(=O)c1ccc(C)cc1	·	-21%
Cc1ccnc(NC(=O)CCNC(=O)c2ccc(Br)cc2)c1	3%	-13%
COc1ccc(NC2CCCN(C(=O)Cn3ccc(C)n3)C2)cc1OC (centres undefined)	i	-5%
CSCC[C@H](N)C(=O)NCC1CCC(C(=O)Nc2ccc3c(c2)OCO3)CC1 (some centres undefined)	-4%	1%
CCOc1ccc2[nH]c(=O)c(C(c3nnnn3CCOC)N3CCOCC3)cc2c1 (centres undefined)	·	15%
COC(=O)c1ccc(C(=O)OCc2nc3cc4ccccc4cc3[nH]2)cc1	·	-13%
Cc1ccn2c(NC3CCCCC3)c(C(C)C)nc2c1	-9%	-6%
CCc1ccc2nc(N3CCC(C(=O)O)CC3)sc2c1	-6%	5%
Cc1cccnc1C(NC(=O)C1CCN(Cc2ccc(Oc3ccccc3)cc2)CC1)c1ccc(F)cc1 (centres undefined)	-27%	-18%
CN(Cc1cnccn1)C(=O)CC1C(=O)NCCN1Cc1ccc(F)cc1Cl (centres undefined)	i	-7%
CCNC(=O)NC(=O)C(C)Sc1ccc2c(c1)OCCO2 (centres undefined)	·	-3%
CCC(=O)Nc1nnc(S(=O)(=O)N2CCc3ccccc32)s1	?	-16%&-12%
COc1ccccc1CC(=O)NCCc1ccc(S(N)(=O)=O)cc1	-12%	-11%
Cc1cc(C)cc(Cn2cc(CN3CC(N4CCN(CCO)CC4)CS3(=O)=O)nn2)c1 (centres undefined)	-7%	-5%
CC(=O)Nc1ccccc1C(F)(F)F	-13%[7.34 µM]	7%[7.34 µM]
C[C@H]1CN([C@@H](C)CO)C(=O)CCCn2nncc2CO[C@@H]1CN(C)S(=O)(=O)c1cccc(F)c1	-19%	5%
O=C(CSc1n[nH]c(-c2ccccc2Cl)n1)NCc1ccc(F)cc1	-6%	-14%
COc1ccc(-c2nnc(SCC(=O)Nc3cccc(C(F)(F)F)c3)s2)cc1	-11%	-8%
CCOC(=O)CC1CCCCN1C(=O)CCCn1nnnc1CN1CCOCC1 (centres undefined)	-10%	-11%
O=C(O)CCN1C(=O)c2ccc(NC(=O)CSCc3ccccc3)cc2C1=O	-15%	-7%
COc1cccc(C2=Cc3ccc(F)cc3C(CC(C)=O)N2c2ccc(-c3cncnc3)cc2)c1 (centres undefined)	-12%	-10%
CCC(=O)Nc1ccc(NC(=O)c2cc3ccccc3o2)cc1	·	-1%
CCCS(=O)(=O)N1CCC(C(=O)NCCCN2CCC(Cc3ccccc3)CC2)CC1	i	-7%

(more compounds)
SMILES	VACV mCherry inh	VACV Venus inh
Cc1cc(NC(=O)CSc2ccccc2)no1	i	?
Cc1ccc(C)c(NC(=S)N(CCc2nc3cc(C)c(C)cc3[nH]2)Cc2cccnc2)c1	i	-15%
O=C(Nc1ccccc1)Nc1ccc2ocnc2c1	2%	-13%
Cc1cc(NS(=O)(=O)c2ccc(NC(=O)CSc3nc4sc(C(=O)O)c(C)c4c(=O)[nH]3)cc2)no1	13%	5%
CCOC(=O)C1=CN(CC)S(=O)(=O)NC1CC (centres undefined)	-18%	-14%
COc1ccc(NC(=O)c2ccc(S(=O)(=O)NCc3cccnc3)cc2)cc1	-21%	-17%
CN1CCN(C(=S)NC(=O)c2ccco2)CC1	i	-9%
CCOc1cc(/C=C2\SC(=N)N(c3nccs3)C2=O)ccc1OCCN1CCOCC1	11µM*	?
Cc1ccc(C)c(N2CCN(CCCNC(=O)c3cnn(-c4ccccc4)c3C3CCN(C(=O)OC(C)(C)C)CC3)CC2)c1	-17%	?
O=C(CC1Sc2ccccc2NC1=O)NCc1ccc(Cl)cc1 (centres undefined)	-28%	-16%
Cc1c(Cl)cccc1NC(=O)Cn1nc(C)n2cccc2c1=O	29%[7.34 µM]	19%[7.34 µM]
COc1ccccc1N(CC(O)CN1CCOCC1)S(=O)(=O)c1ccccc1 (centres undefined)	-14%	-4%
CC(=O)Nc1cccc(NC(=O)c2c(-c3ccccc3Cl)noc2C)c1	i	-23%
c1ccc2c(c1)nc(CN1CCOCC1)n1c3ccccc3nc21	·	-2%
Cn1nnc2c(NCc3ccccc3)ncnc21	i	-8%
Cc1cc2cc(C)c3nnc(SCC(=O)NCc4ccco4)n3c2cc1C	-24%	-22%
COc1ccc(NC(=O)c2cc(C3CCCCN3S(=O)(=O)Cc3ccccc3)on2)cn1 (centres undefined)	i	-8%
CCC(=O)Oc1cccc(C(=O)Nc2cccc(NC(=O)c3ccco3)c2)c1	-8%	-12%
COc1cc(NC(=O)c2nccnc2N)cc(C(=O)Nc2cccc(C(F)(F)F)c2)c1	-16%	?
Cc1ccc(C(=O)N2CC(=O)Nc3ccc(F)cc3C2c2ccccc2)cc1 (centres undefined)	-22%	-25%
O=C(CSc1nc(-c2ccc(F)cc2)cc(C(F)(F)F)n1)NCCc1ccccc1	-12%	-7%
O=c1[nH]c(SCc2ccc(Cl)cc2)nc2ccsc12	-11%	-7%
CCOC(=O)c1sc2ccccc2c1S(=O)(=O)NCc1ccccc1OC	-12%	-6%
CC1CN(C(=O)C2CC(=O)N(c3ccc(Cl)cc3)C2)CC(C)O1 (centres undefined)	0%	-1%
C/C(=N\Nc1nc2ccc(Cl)cc2o1)c1ccccc1	-24%	-18%

Sorted by heavy-atom count (high to low): part of the list above
SMILES	VACV mCherry inh	VACV Venus inh
COc1ccc(NC(=O)c2cc(C3CCCCN3S(=O)(=O)Cc3ccccc3)on2)cn1 (centres undefined)	i	-8%
O=C(CC1Sc2ccccc2NC1=O)NCc1ccc(Cl)cc1 (centres undefined)	-28%	-16%
Cc1cc(NC(=O)CSc2ccccc2)no1	i	?

As a working copy, part of the list above.
SMILES	VACV mCherry inh	VACV Venus inh
Cc1cc(NC(=O)CSc2ccccc2)no1	i	?
Cc1ccc(C)c(NC(=S)N(CCc2nc3cc(C)c(C)cc3[nH]2)Cc2cccnc2)c1	i	-15%
O=C(Nc1ccccc1)Nc1ccc2ocnc2c1	2%	-13%
Cc1cc(NS(=O)(=O)c2ccc(NC(=O)CSc3nc4sc(C(=O)O)c(C)c4c(=O)[nH]3)cc2)no1	13%	5%

More records follow.
SMILES	VACV mCherry inh	VACV Venus inh
O=C(OCc1cc(=O)c(OC(=O)c2ccccc2)co1)c1ccccc1	-19%	-15%
COc1ccc(NC(=O)CN(C)C(=O)C2CC(=O)N(Cc3ccc(C)cc3)C2)cc1 (centres undefined)	-1%	-17%
CN(C)CCN1CCN(C2CN(Cc3ccc([N+](=O)[O-])cc3)S(=O)(=O)C2)CC1 (centres undefined)	10%	9%
O=C1CCN(Cc2ccccc2)C=C1C(=O)c1ccccc1	i	-12%
O=C1c2[nH]c(=O)[nH]c(=O)c2CN1Cc1ccccc1	-9%	1%
COc1ccc(-c2cnc3nc(/N=C/N(C)C)nn3c2/N=C/N(C)C)cc1	0%	-3%
CCCCCc1cc(=O)oc2c(C(CCN3CCN(c4ccccc4)CC3)c3ccc4c(c3)OCO4)c(OC)cc(OC)c12 (centres undefined)	-27%	-10%
O=C(CN1C(=O)CCS(=O)(=O)c2ccccc21)Nc1ccccc1F	-14%	-1%
Brc1ccc(CN2CCN(c3ccccc3)CC2)o1	-6%	8%
CCCCCCSc1ccc([C@H]2N[C@@](Cc3ccccc3)(C(=O)OC)[C@H]3C(=O)N(C)C(=O)[C@@H]23)cc1OC	-5%	-23%
Cc1c(C(=O)N2CCOc3ccccc3C2)sc2ncnc(NCCCN3CCOCC3)c12	-9%	-6%
CCC(=O)N1CCc2cc(Br)cc(S(=O)(=O)N3CCCC(C(=O)N(C)c4ccc(Br)cc4)C3)c21 (centres undefined)	-24%	-28%
COCCNC(=O)CSc1nc2cc(OC)c(OC)cc2c(=O)n1Cc1ccc(OC)cc1	-12%	-12%
Cc1cc(C)cc(OCC(=O)Nc2ccc(Cl)cc2C(=O)c2ccccc2)c1	-26%	-22%
CC1(C(=O)NS(=O)(=O)c2ccccc2Cl)CCN1C(=O)c1ccco1 (centres undefined)	14%	2%
O=C(CSC1=NS(=O)(=O)c2cc(Cl)ccc2N1)Nc1cccc(F)c1	-2%	-7%
CSCCC(NC(=O)CCC(=O)OCC(=O)[C@@]1(O)CCC2[C@@H]3CCC4=CC(=O)C=C[C@]4(C)C3[C@@H](O)C[C@@]21C)C(=O)O (some centres undefined)	i	-25%
CC1=C(C(=O)Nc2ccccc2)C(c2ccc(C)o2)n2ncnc2N1 (centres undefined)	·	-17%
COc1ccc(N(C)S(=O)(=O)c2ccc3c(c2)CCC(=O)N3)cc1	-14%	-6%
CCN(c1ccccc1)S(=O)(=O)c1ccc(Oc2ccc(-n3ccnc3)cc2)nc1	-6%	-16%
C[C@@H]1c2ccccc2N2C[C@H](Cc3ccc(C(=O)c4ccccc4)cc3)C[C@@H]12	-2%	-13%
CN1CCN(C(=O)C23CC4CC(C2)CC(c2ccccc2)(C4)C3)CC1	-10%	-4%
O=C(CSc1nc(-c2ccc(F)cc2)cc(C(F)(F)F)n1)NCc1ccco1	-28%	-27%
c1ccc(-c2nnc(CSc3nc4ccccc4[nH]3)o2)cc1	-6%	-4%
Cc1cc(NC(=O)CN2C(=O)C(C)(C)c3ccccc32)ccc1Br	0%	0%

Going on with the list.
SMILES	VACV mCherry inh	VACV Venus inh
CC(=O)c1cccc(S(=O)(=O)N2CCC(c3nc4ccccc4[nH]3)CC2)c1	-2%	-18%
O=C(Nc1cccc(F)c1)c1ccc2c(c1)OCO2	-26%	-20%
Cc1ccc(NC(=O)Nc2ccccc2C(=O)NCc2ccccc2)cc1	·	9%
O=C(Cn1ncc2c3ccccc3n(Cc3cccc(Cl)c3)c2c1=O)N1CCCCC1	-18%	-12%
Cc1ccc(NC(=O)c2oc3ccc(S(=O)(=O)N4CCOCC4)cc3c2C)c(C)c1	-11%	-14%&-17%
CCC(=O)N1c2ccc(S(=O)(=O)NCCc3ccccc3)cc2CC1C (centres undefined)	-8%	-7%
COc1ccccc1CNc1nc2nc(C)cc(=O)n2[nH]1	·	-12%
COC(=O)c1ccc(NC(=O)CCn2cnnn2)c(C)c1	10%	6%
CC(C)c1ccc(C(=O)NCCCNC(=O)c2cnccn2)cc1	-8%	14%
CCOC(=O)c1cnc2ccc(OCC)cc2c1N1CCN(c2ccccc2OC)CC1	?	-25%
CC(C)n1c(O)c(C2c3cc(Cl)ccc3Oc3[nH]c(=O)n(C(C)C)c(=O)c32)c(=O)[nH]c1=O (centres undefined)	-26%[7.34 µM]	-7%[7.34 µM]
COc1ccccc1N1CCN(C(=O)c2cc(S(=O)(=O)N3CCOCC3)ccc2C)CC1	-7%	-2%
CCOC(=O)CN(C(=O)CSc1nnnn1C)c1ccccc1	-4%	0%
COc1cccc(SCC2CSc3nc4ccccc4c(=O)n32)c1 (centres undefined)	-4%	-4%
COc1cccc(-n2c(SCc3ccc(F)cc3)nc3c([nH]c4ccccc43)c2=O)c1	-15%	-16%
CC1(C)Cc2cccc(OCC(=O)N3CCN(c4ccccc4)CC3)c2O1	-21%	-13%
C=CCC1CCCCC12NC(=O)N(c1ccccc1)N2 (centres undefined)	-18%[7.34 µM]	-10%[7.34 µM]
c1ccc(-n2nnnc2NC2CCCCC2)cc1	-18%	-17%
O=C(COC(=O)c1cccnc1)c1ccc(Cl)c(Cl)c1	i	-16%
COc1ccc(NC(=O)CN2CCC(C(N)=O)CC2)cc1	-13%	3%
CN(C)S(=O)(=O)c1cccc(NC(=O)c2ccc(S(=O)(=O)N3CCCC3)cc2)c1	-8%	-22%
CC(=O)c1ccc(NC(=O)CCc2nc3sc4c(c3c(=O)[nH]2)CCCC4)cc1	-13%	-17%
COC(=O)[C@]12CCCCC=C1N(CCc1ccc(OC)c(OC)c1)C(=O)[C@H](CC(=O)N1CCCC1)C2	12%	6%
O=C(Nc1cccc2ccccc12)/C(=C/c1cccc([N+](=O)[O-])c1)NC(=O)c1cccs1	i	0%
CC(=O)c1cccc(S(=O)(=O)N2CCN(c3ccccc3F)CC2)c1	-15%	-15%
COc1ccc2c([N+](=O)[O-])c(N3CCCC3)[nH]c2c1	-8%	4%
O=C(Cc1cn2ccsc2n1)Nc1cccc2cnccc12	·	-16%
COc1ccc(CCNC(=O)C2CC(c3ccc([N+](=O)[O-])cc3)=NO2)cc1 (centres undefined)	-3%	-12%
CCOC(=O)CSc1nnc(CNc2nc(-c3ccccc3)cs2)n1C	·	?
CCCCC(CC(C)O)c1n[nH]c(=S)n1-c1ccccc1 (centres undefined)	i	-16%

Single records (already shown):
CC(C)n1c(O)c(C2c3cc(Cl)ccc3Oc3[nH]c(=O)n(C(C)C)c(=O)c32)c(=O)[nH]c1=O (centres undefined) across the screens: VACV mCherry inh: -26%[7.34 µM]; VACV Venus inh: -7%[7.34 µM]
COc1cccc(-n2c(SCc3ccc(F)cc3)nc3c([nH]c4ccccc43)c2=O)c1 across the screens: VACV mCherry inh: -15%; VACV Venus inh: -16%

Screening data from PubChem BioAssay.
